# Screens (PubChem)
# Polio RdRp inh = poliovirus RdRp elongation inhibitors, primary screen, biochemical, fluorescence polarization, total intensity; poliovirus polymerase elongation; active compounds read low; % elongation, % (compound at 16.7 µg/mL); hit rate 0.66% among 150,000; AID 588519, 2011; in the data active means % elongation below about 90%; further: some results filed as inactive read as strong as hits
# Target sequence (P03300 1749-2209 limits assumed): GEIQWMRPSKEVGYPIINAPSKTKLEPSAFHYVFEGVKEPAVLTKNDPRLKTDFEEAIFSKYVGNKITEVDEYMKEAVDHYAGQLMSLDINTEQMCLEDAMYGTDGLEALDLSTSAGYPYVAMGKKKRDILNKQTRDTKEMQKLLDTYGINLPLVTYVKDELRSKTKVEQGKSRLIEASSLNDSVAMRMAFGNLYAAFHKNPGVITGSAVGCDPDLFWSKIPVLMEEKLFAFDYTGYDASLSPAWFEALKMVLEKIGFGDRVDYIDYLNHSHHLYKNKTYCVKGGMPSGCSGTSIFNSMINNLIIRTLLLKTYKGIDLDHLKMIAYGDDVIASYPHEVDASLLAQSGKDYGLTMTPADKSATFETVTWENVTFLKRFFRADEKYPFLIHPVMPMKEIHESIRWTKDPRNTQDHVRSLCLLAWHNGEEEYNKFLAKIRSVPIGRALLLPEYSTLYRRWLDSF
# Polio RdRp inh intensity = second read-out of Polio RdRp inh, no call of its own (marks repeat the call); % elongation; measured here: total intensity read-out; formula for this scale not given here;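 total fluorescence in place of polarization; lower means less elongation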
# * marks the source's active call; other numbers are inactive results. Not all compounds are listed, so the mix of outcomes need not match the whole.
SMILES,Polio RdRp inh,Polio RdRp inh intensity
COc1ccc(C(=O)c2cn(CC(=O)Nc3ccc4c(c3)OCCO4)c3ccc(OC)cc3c2=O)cc1,107,111
CCOC(=O)c1c(NC(=O)c2cc(=O)c3c(C)cc(C)cc3o2)sc(C(C)=O)c1C,113,115
COc1ccccc1N1CCN(C(=O)c2cnn(-c3ccc(F)cc3F)c2C2CCNCC2)CC1,100,98
CCc1ccc(NC(=O)CSC2=Nc3ccccc3C3=NC(CCC(=O)NCc4ccccc4OC)C(=O)N23)cc1 (stereo not given),106,108
CC(C)c1ccc(C2Sc3ccccc3NC3=C2C(=O)c2ccccc23)cc1 (stereo not given),103,101
CCN1C(=O)c2ccccc2Sc2ccc(NC(C)=O)cc21,113,113
CCc1ccc(-n2c(=O)c3c4c(sc3n(CC(=O)N3CCCCC3CC)c2=O)CCC4)cc1 (stereo not given),105,104
Cc1ccc(NC(=O)N2CCN3CCCCC3C2)cc1F (stereo not given),108,99
CCOc1ccc(CCNC(=O)c2ccc(CSCc3ccccc3C)o2)cc1OCC,108,97
COc1ccccc1C(=O)Nc1cc2c(cc1N1CCOCC1)n(C)c(=O)n2C,109,101
COc1cccc(OCc2nc3ccccc3n2C)c1,111,117
Cc1cc(=O)c2cc(C(=O)Nc3ccccc3C)ccc2[nH]1,106,112
Cc1oc(-c2cccc(Cl)c2)nc1CSc1nc2ncccc2[nH]1,106,109
Cc1cccc(N(C)S(=O)(=O)c2nnc(NC(=O)C(C)Oc3ccccc3)s2)c1 (stereo not given),104,106
CCCCNc1nc(Oc2ccc(OCCC)nn2)nc(N(C)C)n1,110,114
Cc1ccc(NC(=O)CCc2c(C)nn(-c3ccc(N4CCOCC4)nn3)c2C)cc1F,103,97
Cc1ccc(NC(=O)N2CCC(N3CCN(Cc4ccccc4)C(=O)C3=O)CC2)cc1Cl,109,111
Cc1ccc(CNC(=O)CC2Oc3ccccc3NC2=O)cc1 (stereo not given),102,109
COc1ccc(Cc2nc3ccc(C(=O)NCc4ccccc4C)cc3o2)cc1,105,112
CCc1ccccc1NS(=O)(=O)c1ccc2c(c1)CCN2C(=O)C1CC1,111,113
COc1cccc(Cn2c(C)c(CNCc3cccc(C)c3)c(C(=O)O)c2C)c1,108,109
COc1ccccc1NS(=O)(=O)c1cc2c(cc1Cl)NC(=O)CO2,110,112
CCC(=O)N1CCCc2cc(S(=O)(=O)N3CCC(C(=O)NCc4ccc(F)cc4)CC3)ccc21,106,103
CN(C)c1ccc(/C=C/c2noc(-c3ccccc3O)n2)cc1,110,110
CN1CCN(C(=O)Cn2c(-c3cccs3)cc3cc(Cl)ccc32)CC1,108,100
O=C(CSc1nnc(-c2ccccc2F)o1)Nc1ccccc1Cl,107,100
COc1ccc(-c2nnc(SCC(=O)Oc3c(C)cccc3C)o2)cc1OC,109,96
CCCCNC(=O)C1CCC(Cn2c(=O)c3sccc3n(CC(=O)N3CCCC3)c2=O)CC1 (stereo not given),108,95
CCOC(=O)c1c(S(=O)(=O)NCC(=O)NCc2ccccc2)c(C)n(C)c1C,106,109
CCOc1ccc(C(=O)c2cn(Cc3ccc(F)cc3)c3ccc(F)cc3c2=O)cc1,104,103

# Retrieved one by one from the entries so far (four):
SMILES,Polio RdRp inh,Polio RdRp inh intensity
Cc1ccc(NC(=O)N2CCC(N3CCN(Cc4ccccc4)C(=O)C3=O)CC2)cc1Cl,109,111
CCc1ccccc1NS(=O)(=O)c1ccc2c(c1)CCN2C(=O)C1CC1,111,113
Cc1ccc(CNC(=O)CC2Oc3ccccc3NC2=O)cc1 (stereo not given),102,109
CCOC(=O)c1c(S(=O)(=O)NCC(=O)NCc2ccccc2)c(C)n(C)c1C,106,109

# Full records, looked up by structure:
# CCOC(=O)c1c(S(=O)(=O)NCC(=O)NCc2ccccc2)c(C)n(C)c1C in the list: Polio RdRp inh: 106; Polio RdRp inh intensity: 109
# CCOc1ccc(C(=O)c2cn(Cc3ccc(F)cc3)c3ccc(F)cc3c2=O)cc1 in the list: Polio RdRp inh: 104; Polio RdRp inh intensity: 103
# Cc1ccc(NC(=O)CCc2c(C)nn(-c3ccc(N4CCOCC4)nn3)c2C)cc1F in the list: Polio RdRp inh: 103; Polio RdRp inh intensity: 97

# Going on with the list:
SMILES,Polio RdRp inh,Polio RdRp inh intensity
CCCOc1cccc(C2c3c(oc4ccc(F)cc4c3=O)C(=O)N2Cc2ccc3c(c2)OCO3)c1 (stereo not given),103,102
COCCCNC(=O)c1c(C)nn(-c2ccc(F)cc2)c1-n1cccc1,109,116
COc1ccc(-c2noc(CN(C(C)C)S(=O)(=O)c3ccc(Br)cc3)n2)cc1,113,110
CCSc1nnc2c(n1)OC(c1cc(OC)c(OC)c(OC)c1)Nc1ccccc1-2 (stereo not given),102,106
Nc1cccc(-c2cn3ccsc3n2)c1,106,112
Cc1cccc(C)c1NC(=O)Cn1nc(C)c2sc3ccccc3c2c1=O,98,106
Cc1ccccc1Nc1sc(C(=O)c2ccc3c(c2)OCO3)c(N)c1S(=O)(=O)c1ccccc1,108,112
COc1cccc(NC(=O)C2CCC(CNS(=O)(=O)c3csc(C(N)=O)c3)CC2)c1 (stereo not given),110,102
CSc1nc2sc3c(c2c(=O)n1Cc1ccccc1)CCC(C(C)(C)C)C3 (stereo not given),106,110
Cc1ccc(CNC(=O)CCS(=O)(=O)c2cc3c(cc2C)NC(=O)CO3)cc1,106,111
COc1ccc(OC)c(CNC(=O)c2nn(-c3ccc(OC)c(Cl)c3)c(=O)c3c2c2ccccc2n3C)c1,109,103
COc1ccc(C(CC(=O)NCc2ccccc2)N2Cc3ccccc3C2=O)cc1 (stereo not given),115,109
CC(=O)c1cccc(NC(=O)c2c(-c3ccccc3)c(-c3ccccc3)nn(C)c2=O)c1,110,104
CC(NC(=O)Cn1ncc2c3ccccc3n(Cc3ccc(F)cc3)c2c1=O)c1ccccc1 (stereo not given),106,108
CCc1ccccc1N1CC(c2nc3ccccc3n2CCCOc2ccc(Cl)cc2)CC1=O (stereo not given),105,108
CC(C)(C)C(=O)Cn1c(=O)n(CCCCCC(=O)NCc2ccccc2Cl)c(=O)c2sccc21,107,113
CCC(=O)N1CCc2cc(Br)cc(S(=O)(=O)N(CC)Cc3ccccc3)c21,105,109
CCc1sc(Nc2cccc(C)c2)nc1-c1cc2cccc(OC)c2oc1=O,108,111
Cc1ccc(-n2nc3ccc(NC(=O)Cc4ccc(Cl)cc4)cc3n2)cc1,111,111
CCCCOc1ccc(C(=O)Nc2ccc(S(=O)(=O)Nc3nc(C)cc(C)n3)cc2)cc1,109,109
Cc1ccc(CNC(=O)CN(c2ccc(C(C)C)cc2)S(=O)(=O)c2c(C)n[nH]c2C)cc1,105,108
COc1ccc2oc(=O)cc(CN3CCN(c4ccccc4F)CC3)c2c1,106,110
CCOc1ccc(CCNC(=O)c2cc3c(-c4ccccc4F)nn(C)c3s2)cc1OCC,108,110
CCOC(=O)N1CCN(S(=O)(=O)N2CCCC(C(=O)NCc3ccccc3OC)C2)CC1 (stereo not given),109,113
COc1ccc(C)cc1NS(=O)(=O)c1ccc2c(c1)n(C)c(=O)n2C,109,110
CCc1cccc(NC(=O)c2nnn(Cc3ccc(SC)cc3)c2N)c1,102,105
Cc1ccc(Cl)cc1-n1ncc2c(NCc3ccc(F)cc3)ncnc21,99,102
Cc1ccc2oc(-c3cccc(NC(=O)c4cccc5c(Br)cccc45)c3)nc2c1,103,102
COc1ccc(NCc2cc3cc4c(cc3n(CC(=O)Nc3ccccc3)c2=O)OCO4)cc1,109,107
Fc1ccccc1N1CCN(c2nc3ccccc3c3nc(-c4ccccc4)nn23)CC1,104,110
Cc1ccc(C)c(N2CCN(C(=O)Cn3nc(Cc4cccnc4)c4ccccc4c3=O)CC2)c1,105,105
CCCCOc1cccc(NC(=O)c2cccc(C(=O)Nc3cccc(OCCCC)c3)c2)c1,101,107
CC(=O)N1CCc2c(sc3c2c(=O)n(-c2ccccc2C)c(=O)n3CC(=O)Nc2ccccc2)C1,108,111
CCN(CC)S(=O)(=O)c1ccc2c(c1)N(CC(=O)NCc1ccccc1)C(=O)C1CCCCN21 (stereo not given),114,107
Cc1ccc(S(=O)(=O)c2cn(C)c3cc(N4CCN(c5ccccc5)CC4)c(F)cc3c2=O)cc1,107,102
CNC(=O)C1CCC(Cn2c(=O)c3sccc3n(CC(=O)Nc3ccc(C)cc3C)c2=O)CC1 (stereo not given),100,105
Cc1ccccc1NC(=O)c1c(NC(=O)c2ccncc2)sc2c1CCC(C(C)(C)C)C2 (stereo not given),100,94
Cc1ccc(C(c2sc3nc(-c4ccco4)nn3c2O)N2CCCC2)cc1 (stereo not given),100,102
Cc1ccc(C)c(CSc2nc3ncccc3[nH]2)c1,107,110
Cc1ccc(NC(=O)CC(C)S(=O)(=O)c2ccc3c(c2)NC(=O)CO3)cc1C (stereo not given),110,109
Cc1cccc(N2CCN(C(=O)Cn3c(C)c4cnn(-c5ccccc5)c(=O)c4c3C)CC2)c1C,110,108
Cc1ccc(-n2ncc(C(=O)N3CCN(c4ccccc4F)CC3)c2C2CCN(C(=O)OC(C)(C)C)CC2)cc1C,106,109
COc1ccc(Cn2c(=O)[nH]c3cc(C(=O)N4CCN(c5ccccc5)CC4)ccc3c2=O)cc1,105,106
Fc1ccc(-c2nc3c4c(-c5ccccc5)c(-c5ccccc5)oc4ncn3n2)cc1,99,104
COc1ccc(N2CCN(CCCNC(=O)c3nnc(Cc4ccccc4Cl)o3)CC2)cc1,109,110
CNc1ccc(-c2nc(-c3ccco3)no2)cc1[N+](=O)[O-],109,129
Cc1ccc(-c2c(C(=O)NCCc3ccccc3)oc(=O)c3ccccc23)cc1,109,113
Cc1cccc(C)c1OCC(=O)N(Cc1ccc(Cl)cc1)CC1CCCO1 (stereo not given),111,113
COc1ccc(CNS(=O)(=O)c2cnc(N)nc2)c(OC)c1,111,108
Cc1ccc(NC(=O)C2CCCN2S(=O)(=O)c2ccc3c(c2)CCCC(=O)N3)cc1Cl (stereo not given),115,106
O=C(Nc1ccc(F)cc1Cl)c1cnc(N2CCOCC2)c2ccccc12,108,101
COc1ccc(S(=O)(=O)N2CCCN(CC(=O)Nc3ccc(OC)cc3OC)CC2)cc1,107,112
Cc1c(Cl)cccc1-c1ccc(CNCCCSc2nnnn2C)o1,97,96
CCCNC(=O)CN1C(=O)c2c(c3ccccc3n2C)C1c1ccc(OC)cc1 (stereo not given),100,104
CCC(C(=O)Nc1cccc(C#N)c1)n1c(=O)c(-c2ccccc2NC(C)=O)nc2ccccc21 (stereo not given),106,102
Cc1cc(C)c(NC(=O)CCCn2c(C)c3cnn(-c4ccccc4)c(=O)c3c2C)c(C)c1,101,105
OCc1cnc(SCc2ccccc2F)n1Cc1ccc(F)cc1,103,107
CCc1ccc(NC(=O)Cc2c(C(=O)O)c(C)cn2C)cc1,108,113
Cc1cccc(C(=O)n2nc(-c3cccnc3)nc2NCc2ccccc2)c1,98,93
Cc1cc(C)cc(NC(=O)Cn2nc(N3CCN(c4ccccc4)CC3)ccc2=O)c1,108,114

# Filtered by structure: the compounds so far with a tert-butyl group
SMILES,Polio RdRp inh,Polio RdRp inh intensity
CSc1nc2sc3c(c2c(=O)n1Cc1ccccc1)CCC(C(C)(C)C)C3 (stereo not given),106,110
CC(C)(C)C(=O)Cn1c(=O)n(CCCCCC(=O)NCc2ccccc2Cl)c(=O)c2sccc21,107,113
Cc1ccccc1NC(=O)c1c(NC(=O)c2ccncc2)sc2c1CCC(C(C)(C)C)C2 (stereo not given),100,94
Cc1ccc(-n2ncc(C(=O)N3CCN(c4ccccc4F)CC3)c2C2CCN(C(=O)OC(C)(C)C)CC2)cc1C,106,109

# Remaining list, next part.
SMILES,Polio RdRp inh,Polio RdRp inh intensity
CCOC(=O)c1ccc(N2C(=O)c3n[nH]c(-c4ccco4)c3C2c2ccc(O)c(OC)c2)cc1 (stereo not given),106,102
CC(=O)N1CCCc2cc(S(=O)(=O)N3CCC(C(=O)Nc4ccc(C)cc4Cl)CC3)ccc21,101,107
CCNC(=O)c1c(NC(=O)Cc2coc3cc(C)cc(C)c23)sc2c1CCCC2,120,117
Cc1c(CCC(=O)NCCc2ccccc2F)c(=O)oc2cc(O)ccc12,105,111
COc1ccc(CCNCc2c(C(=O)O)c(C)n(Cc3cccc(Cl)c3)c2C)c(OC)c1OC,108,112
O=C(c1ccc2c(c1)N(Cc1ccccc1)C(=O)c1ccccc1S2(=O)=O)N1CCN(Cc2ccccc2)CC1,107,111
CC(C)(C)C(=O)CSc1nc2ccsc2c(=O)n1Cc1ccccc1F,104,100
Cc1ccc(CNC(=O)CCN2C(=O)C(C)Oc3ccc(C)cc32)cc1 (stereo not given),103,99
CCCCNC(=O)CSc1nc2cc3c(cc2c(=O)n1CCCCCC(=O)NCc1ccc(OC)cc1)OCO3,106,109
COc1ccc(-n2cnc3cc(C(=O)NC4CCCC4)ccc32)cc1,101,106
Cc1ccccc1NC(=O)Cn1nnc(C(=O)NCc2cccs2)c1N,112,115
O=c1oc2ccccc2cc1-c1cn2cc(Cc3ccc(Cl)cc3)sc2n1,107,110
CCCCN(CC)CCNC(=O)c1nn(C)c2c1CS(=O)(=O)c1ccccc1-2,112,111
COc1ccc(-c2nnc(SCC(=O)Nc3cccc(C)c3)s2)cc1,108,102
CCc1ccc(NC(=O)Cn2ccn(-c3ccc(OC)cc3)c(=O)c2=O)cc1,101,106

# In the list so far, these contain a COOH group:
SMILES,Polio RdRp inh,Polio RdRp inh intensity
COc1cccc(Cn2c(C)c(CNCc3cccc(C)c3)c(C(=O)O)c2C)c1,108,109
CCc1ccc(NC(=O)Cc2c(C(=O)O)c(C)cn2C)cc1,108,113
COc1ccc(CCNCc2c(C(=O)O)c(C)n(Cc3cccc(Cl)c3)c2C)c(OC)c1OC,108,112

# Other entries:
SMILES,Polio RdRp inh,Polio RdRp inh intensity
COc1ccccc1CNC(=O)CCn1c(=O)c2ccccc2n(CC(=O)Nc2ccc(C)cc2Cl)c1=O,104,105
CSc1ncc(C(=O)N2CCN(c3ccc(F)cc3)CC2)c(C)n1,109,117
Cc1ccc(NC(=O)Cn2c(=O)n(CCCCC(=O)NCc3ccc4c(c3)OCO4)c(=O)c3ccccc32)cc1,109,109
CCn1nc(C)c(CCN(C)C(=O)Nc2cccc(Cl)c2C)c1C,101,106
